Screening data (PubChem)
HSD17B inhib = blocks hydroxysteroid 17-beta dehydrogenase activity; Q99714; recombinant HSD17B10, NADH fluorescence kinetic; many of its hits are not listed in these tables; Potency, µM (titrated, usually from 57.1 µM), for inactives: top-dose activity change, negative = inhibition, hits mostly inhibitors; 75,000 tested, 7.6% active; active = well fitted inhibition curve with a large enough effect; inconclusive = small, poorly fitted or top-dose-only effect; inactive = no such curve, though single readings can be large or run the other way;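 also: the protocol describes HADH2 (HSD17B10) and not the HSD17B4 of the title; nearly all actives have a fitted effect of over 70% in size; most hits overshoot -100% by far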
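His-tagged E. coli-expressed HADH2 at 20 nM in 100 mM Tris-HCl pH 9.0 with 0.01 % Tween-20, preincubated 15 min with compound at room temperature. Reaction with 1 mM NAD+ and 90 uM beta-hydroxybutyryl coenzyme A; NADH fluorescence (360/450 nm) read kinetically over 4 min, last minus first point.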
Numbers without * were called inactive; ? = inconclusive; [ ] = dose if it differs, or a comment. % is scaled to controls: 0 for no effect and ±100 for the full control effect; potency is read from the fitted curve at half-maximal effect. Not all compounds are listed; count on the stated rates, not on these rows.

SMILES	HSD17B inhib
O=C(O)Cn1c(=O)oc2cc(S(=O)(=O)NC3CCCCC3)ccc21	6.2%
CC12CC(c3ccccc3O1)C(C(=O)N1CCOCC1)C(=O)N2 (stereo not drawn)	-1.2%
O=P(O)(CN1CCCCCC1)CN1CCCCCC1	5.3%
COCCNC(=O)CN(C(=O)CCC(=O)Nc1ccccn1)c1ccc(F)c(Cl)c1	1.5%
CCCCOc1ccc(NC(=O)C2CC=CCC2C(=O)O)cc1 (stereo not drawn)	5.1%
COC(=O)[C@@H](NC(=O)Nc1ccc(C(C)=O)cc1)C(C)C	5.0%
CC(C)c1ccc(NC(=O)N2CCC(c3nc4ccccc4o3)CC2)cc1	-1.3%
c1ccc(OCc2nc(-c3ccccc3)no2)cc1	-3.4%
Cc1cc(C(=O)CN2CC(C)OC(C)C2)c(C)n1-c1ccccc1 (stereo not drawn)	8.3%
CC(C)(C)n1c(=O)[nH]c2c(c1=O)CCC2	1.2%
O=C(NCc1cccnc1)c1cccc(S(=O)(=O)N2CCOCC2)c1	2.3%
COc1ccc(-c2cc(C(F)(F)F)nc(N3CCN(C)CC3)n2)cc1	-7.8%
CCCCOc1ccc(C2C3CN(C(=O)OCC)CC=C3C(C#N)=C(N)C2(C#N)C#N)cc1OC (stereo not drawn)	7.1%
COc1cc2c(cc1OC)CN(CC(=O)NC(=O)NCc1ccco1)CC2	24.5%
CCN(CC)CCNC(=O)Cn1c(-c2ccccn2)nc2ccccc21	25.1µM*
CCCC(=O)N=C1SC2CS(=O)(=O)CC2N1c1ccc(C(C)=O)cc1 (stereo not drawn)	2.4%
COc1nc(-c2ccccc2)cc(-c2ccccc2)n1	-7.6%
C=CCn1cc(C(=O)NCc2cccnc2)c(=O)c2cc(S(=O)(=O)N(CC)CC)ccc21	-22.0%
CC(C)CN1CC2(CCN(C(=O)c3cnccn3)CC2)C1	-0.4%
CC(C)c1ccc(OCC(O)CN2CCN(c3ccccc3)CC2)cc1 (stereo not drawn)	-11.4%
O=c1c2ccccc2nnn1CSc1nnc(C2COc3ccccc3O2)n1-c1ccccc1 (stereo not drawn)	-4.1%
N#Cc1cccc(-c2ccc3ncnc(N4CCNCC4)c3c2)c1	-28.3%
CN1CCN(c2ncc3nc(CCc4ccccc4)c(=O)n(Cc4cccs4)c3n2)CC1	-28.6%
CCOc1ccc(C2N(c3ccc(OC)cc3)C(=O)C3CCCN32)cc1OC (stereo not drawn)	7.4%
C[N+]1(C)CCC[C@@H](OC(=O)C(O)(c2ccccc2)c2ccccc2)C1	2.3%[25.6 µM]
COc1ccc(OC)c(C(=O)CSc2nnc(-c3ccc(OC)c(OC)c3)o2)c1	25.1µM*
O=C(c1ccccc1C(F)(F)F)N1CCN(S(=O)(=O)c2ccccc2)CC1	9.4%
CCCOC(=O)CSc1nnc(-c2ccccc2Cl)o1	2.9%
c1ccc(CCc2nn3c(Cc4ccccc4)nnc3s2)cc1	-0.1%
Cc1ccc(-c2csc(N)n2)s1	-13.0%
O=C(Oc1cccnc1)c1ccc(Cl)c(Cl)c1	-1.6%
COc1ccc(NC(=O)c2oc3ccccc3c2NC(=O)c2ccco2)c(OC)c1	15.8µM*
Cc1nnc(SCCn2c(N3CCC(C)CC3)nc3c2c(=O)[nH]c(=O)n3C)s1	5.2%
COc1ccc(OCC(=O)Nc2ccc(S(=O)(=O)N3CCCCCC3)cc2)cc1	6.7%
CC(C(=O)Nc1cc(C(F)(F)F)ccc1N1CCOCC1)N1C(=O)C2CC=CCC2C1=O (stereo not drawn)	4.4%
Nc1cc(-c2cccc(F)c2)nn1S(=O)(=O)c1cccc2nsnc12	-5.8%
CCCn1c(-c2ccc(F)cc2)nc2c(NCCCN(CCO)CCO)nc(C)nc21	25.1µM*
COc1ccc2nc(SCC(=O)N3CCNC3=O)[nH]c2c1	-1.5%
CC(C)CCn1c(N2CCN(Cc3ccccc3)CC2)nc2c1c(=O)[nH]c(=O)n2C	6.4%
Cc1cccc(S(=O)(=O)NCCC(=O)OC(C)C(=O)NC(=O)NC2CCCCC2)c1 (stereo not drawn)	0.3%
c1ccc2c(c1)sc1nnnn12	-0.3%
CCSc1nnc(-c2ccc(S(=O)(=O)N3CCCC3)cc2)n1C	31.6µM*
CSc1ccccc1NC(=O)c1ccco1	-2.0%
COCCCNc1ncnc2nc[nH]c12	-28.8%
COc1ccc(O[C@H]2C=C[C@@H](c3ccccc3)O[C@H]2CO/N=C(/C)CCC(=O)OC[C@@H]2O[C@H](C#Cc3ccccc3)C=C[C@@H]2Oc2ccc(C)cc2)cc1	3.8%[11.4 µM]

An excerpt from above in order of length of the SMILES, highest first.
SMILES	HSD17B inhib
C[N+]1(C)CCC[C@@H](OC(=O)C(O)(c2ccccc2)c2ccccc2)C1	2.3%[25.6 µM]
O=C(c1ccccc1C(F)(F)F)N1CCN(S(=O)(=O)c2ccccc2)CC1	9.4%
CCOc1ccc(C2N(c3ccc(OC)cc3)C(=O)C3CCCN32)cc1OC (stereo not drawn)	7.4%
CCCCOc1ccc(NC(=O)C2CC=CCC2C(=O)O)cc1 (stereo not drawn)	5.1%

(more compounds)
SMILES	HSD17B inhib
Cn1c(SCc2nc3ccccc3s2)nnc1-c1ccc2c(c1)OCO2	-1.9%
Cn1c(=O)[nH]c(=O)c2c1nc(CN1CCOCC1)n2CCCO	-0.8%
S=c1[nH]ncn1-c1ccccn1	4.9%
COc1ccc(Cl)c(Cn2c(NCCCN(C)C)nc3c2c(=O)n(C)c(=O)n3C)c1	9.0%
CCOC(=O)CSc1nnc(NC(=O)c2cccc(S(=O)(=O)N3CCCC3)c2)s1	-3.5%
CCOC(=O)c1c(C)[nH]c(C(=O)OCC(=O)N2CC(C)OC(C)C2)c1C (stereo not drawn)	13.2%
O=C(COc1ccc2ccccc2c1CN1CCOCC1)N1CCc2ccccc21	-2.9%
CC(C)=NOC[C@@H](O)COCc1ccco1	1.0%[11.4 µM]
CCCNc1ncnc2sc(C)c(C)c12	-5.5%
O=C(c1cc2ccccc2o1)N1CCN(c2ccccc2Cl)CC1	1.1%
COC(=O)c1cc(OC)c(OC)cc1NC(=O)c1c(-c2ccccc2Cl)noc1C	?
COCC(=O)NCc1ccc2c(c1)OCO2	0.0%
Nn1c(Nc2ccccc2)nc2ccccc2c1=O	0.2%
Clc1ccc(OCc2nc(-c3ccncc3)no2)c(Br)c1	0.1%
CCOC(=O)CSc1nc2cc(C(=O)NCc3ccco3)ccc2c(=O)n1C1CCCCC1	1.3%
Cc1cc(NC(=O)CSc2nnc3c(C)cc4ccccc4n23)no1	3.0%
Cc1cnc(CNc2ccnc(-c3ccccc3C(F)(F)F)n2)cn1	5.4%
Cc1nc2cnc(N(C)C)nc2n(CCC#N)c1=O	?
Cc1ccc(C)n1CCN1CCN(CC(=O)Nc2cc(C(F)(F)F)ccc2Cl)CC1	1.4%
CCOC(=O)C1CCN(c2cc(=O)n(Cc3ccc(F)cc3)c(=O)[nH]2)CC1	7.4%
COCCNC(=O)C(c1ccc(C)cc1)N(C(=O)CCC(=O)Nc1ccccn1)C1CCCC1 (stereo not drawn)	-2.0%
O=C1c2oc3ccccc3c(=O)c2C(c2cccc(F)c2)N1CCCO (stereo not drawn)	-6.7%
CCCNC(=O)NCCc1ccncc1	3.3%
CCCCOc1ccccc1NC(=O)c1ccco1	1.4%
CC(C)C(C)(C#N)NC(=O)CSc1nc2scc(-c3ccco3)c2c(=O)n1-c1ccccc1 (stereo not drawn)	-29.6%
O=C(Oc1ccc2c(c1)OCO2)c1ccc(F)cc1Cl	-7.7%
COc1ccc(CCNC(=O)c2nonc2N)cc1OC	1.5%
CN1C[C@@H]2C(c3ccc(C(F)(F)F)cc3)C3(c4ccc(C#N)cc4)CC2(C3)[C@H]1c1ccccc1 (stereo partly drawn)	-5.2%
CC1(C)CC(N=C=O)CC(C)(CN=C=O)C1 (stereo not drawn)	3.1%
CC(=O)Nc1ccc(S(=O)(=O)NCCSc2ccccn2)cc1	-11.9%
COCC(=O)N1CCC2(CCCN(Cc3cc(C(F)(F)F)cc(C(F)(F)F)c3)C2)CC1	0.7%
CC(C)NS(=O)(=O)c1ccc(OCC(=O)NCc2ccccc2)cc1	5.0%
CC(=O)C1=C(O)C(=O)N(C)C1c1ccccc1F (stereo not drawn)	-1.1%
COc1ccc(C2C(C(=O)N3CCCC3)c3cc(OC)c(OC)cc3C(=O)N2C)cc1 (stereo not drawn)	-13.9%
O=C(NCC(=O)N(c1cnc2ccccc2c1)C(C(=O)NC1CCCC1)c1ccncc1)c1ccco1 (stereo not drawn)	5.5%
CCSC1=C(C#N)C2(CCCCC2)C(C#N)C(=O)N1 (stereo not drawn)	0.5%
CC(=O)c1c(O)cc(C)n(Nc2nc(C)cc(C)n2)c1=O	-10.7%
CN(CC(=O)NCc1ccc(F)cc1)S(=O)(=O)c1cccc2nsnc12	-2.7%
Cc1ccc(S(=O)(=O)NCc2ccco2)c(C)c1C	-14.2%
NC(=O)C1CCN(C(=O)c2cnn(-c3ccccc3)c2NC(=O)c2ccco2)CC1	4.5%
COCCn1c(SCC(=O)NCC2CCCO2)nc2c(c1=O)SC(C)C2 (stereo not drawn)	8.5%
COc1ccc(S(=O)(=O)N2CCCC(C(=O)Nc3cccc(C(C)=O)c3)C2)cc1 (stereo not drawn)	-2.9%
O=C(c1cccnc1)N1CCN(C(=O)c2ccccc2F)CC1	13.4%
Cc1cccc(NC(=O)CSc2nnc(Cn3nnc(-c4ccccc4)n3)n2-c2ccccc2)c1	4.7%
CCOC(=O)CN(C(=O)CSc1nnc(-c2ccc(OC)c(OC)c2)o1)c1ccccc1	1.6%
O=C(O)c1ccccc1SCC(=O)N1CCCCC1	0.5%
COc1ccc(-n2c(Cc3cccn3C)nnc2SCC(=O)N2CCCc3ccccc32)cc1	?
C[C@H](N)CCCC(C)(C)O	2.0%[25.6 µM]
O=C(Nc1cccc(F)c1)N1CCC2(CCNCC2)CC1	1.9%
CCOC(=O)c1cc2c(C(F)(F)F)cc(-c3cccnc3)nc2o1	-4.4%
CCOC(=O)c1[nH]c(C)c(C(=O)N2CCN(C(=O)c3ccco3)CC2)c1C	-1.6%
N#C/C(=C/c1ccc(N2CCCCCC2)o1)c1ccc(F)cc1	?
Cc1cccc(-n2c(Cc3ccccc3)nnc2SCC(=O)N2CCOCC2)c1	4.4%
CC(C)c1ccc(O)c(O)c(=O)c1 (tested in a mixture with another compound)	0.5%[11.4 µM]
CCNc1ncc2nc(C)c(=O)n(-c3ccc(OC)cc3)c2n1	?
O=C(CSc1ccc2nnc(-c3ccccn3)n2n1)NCc1ccc2c(c1)OCO2	4.7%
COc1ccc(C(=O)Cn2nnc(-c3ccccc3-n3cnnn3)n2)cc1	3.2%
Cc1ccc(N)c(C(=O)CCCCC(=O)O)c1	-5.7%
Cc1ccc(C)c(NC(=O)C(Sc2nncn2C)c2ccccc2)c1 (stereo not drawn)	-0.8%
O=C(NCc1ccco1)c1csc(Nc2ccccc2Cl)n1	-24.5%
More structures follow:
SMILES	HSD17B inhib
CCOc1ccc(NS(=O)(=O)c2ccc3[nH]cc(C(=O)N(CC)CC)c(=O)c3c2)cc1	31.6µM*
CCOC(=O)c1[nH]c2ccccc2c1NC(=O)c1ccc(Br)o1	-3.3%
CCn1c(SCc2ccccc2)nnc1-c1cccs1	-6.1%
CN(C)/C=C(\C#N)c1nc2ccccc2[nH]1	-8.6%
O=C(NCCCN1CCCC1=O)c1ccccc1NS(=O)(=O)c1ccc(F)cc1	?
O=C(OCn1nnc2ccccc2c1=O)c1cccs1	4.4%
Cc1ccc(CSc2nnc(-c3ccc(S(=O)(=O)N4CCCC4)cc3)o2)cc1	8.8%
CCCCCc1nnc(NC(=O)CS(=O)(=O)Cc2ccccc2)s1	7.6%
O=C(NCc1ccco1)C(Cc1ccccc1)N1C(=O)c2ccccc2C1=O (stereo not drawn)	-1.4%
c1ccc(-c2nnc3sc(CN4CCC5(CC4)OCCO5)cn23)cc1	6.4%
COC(=O)c1c(=O)n(O)c2ccc(OC)cc2[n+]1[O-]	-17.0%
CCn1c(CSc2nc3ccccc3[nH]2)n[nH]c1=S	-5.8%
Cn1c(CSCc2ccc(Cl)c(Cl)c2)nnc1SCC(=O)Nc1nccs1	6.3%
C=CCOc1ccccc1/C=c1\sc2nc(=O)c(C)nn2c1=O	25.1µM*
COC(=O)C1CCN(C(=O)Cc2ccc(OC)c(OC)c2)CC1	18.8%
Cc1nc2ccccc2c2oc(C(=O)NCC3COc4ccccc4O3)cc12 (stereo not drawn)	-7.7%
Cc1nnc(SCC(=O)N2CCN(S(=O)(=O)c3ccccc3)CC2)[nH]c1=O	-20.4%
Cc1ccc(-c2nc(CSCC(=O)NCCCN3CCOCC3)c(C)o2)cc1	-18.4%
CCOc1cc(CN2CCSCC2)ccc1O	1.5%
CCC(=O)OCC(=O)[C@@]1(OC(=O)CC)[C@H](C)C[C@@H]2[C@H]3CCC4=CC(=O)C=C[C@]4(C)[C@]3(Cl)[C@@H](O)C[C@@]21C	0.8%[25.6 µM]
CC(C)C(c1nnnn1Cc1ccc2c(c1)OCO2)N1CCN(c2ccccc2)CC1 (stereo not drawn)	-0.1%
Nc1nc2ccccc2n1CCOc1ccccc1Cl	3.9%
CC(NC(N)=O)C12CC3CC(CC(C3)C1)C2 (stereo not drawn)	0.8%

In the list so far, 6 have a thiophene ring, fused or not:
SMILES	HSD17B inhib
CN1CCN(c2ncc3nc(CCc4ccccc4)c(=O)n(Cc4cccs4)c3n2)CC1	-28.6%
Cc1ccc(-c2csc(N)n2)s1	-13.0%
CCCNc1ncnc2sc(C)c(C)c12	-5.5%
CC(C)C(C)(C#N)NC(=O)CSc1nc2scc(-c3ccco3)c2c(=O)n1-c1ccccc1 (stereo not drawn)	-29.6%
CCn1c(SCc2ccccc2)nnc1-c1cccs1	-6.1%
O=C(OCn1nnc2ccccc2c1=O)c1cccs1	4.4%
